Screening results (PubChem BioAssay)
nsP2pro inh: Primary qHTS for inhibitors of NSP2Pro chikungunya virus (CHIKV); FRET peptide cleavage, nsP2pro, fluorescence 1 h; Potency, µM (top dose mostly 24.9 µM), for the others: at the top dose activity change, negative = inhibition, usual class: inhibitors; actives 1.1% (n = 31,000); AID 1964107, 2024; active means well fitted inhibition curve with a large enough effect; inconclusive means small, poorly fitted or top-dose-only effect; inactive means no such curve, though single readings can be large or run the other way; also: nearly all actives have a fitted effect of over 60% in size; a reference inhibitor and vehicle were the controls
Target sequence (Q8JUX6 whole entry, looked up): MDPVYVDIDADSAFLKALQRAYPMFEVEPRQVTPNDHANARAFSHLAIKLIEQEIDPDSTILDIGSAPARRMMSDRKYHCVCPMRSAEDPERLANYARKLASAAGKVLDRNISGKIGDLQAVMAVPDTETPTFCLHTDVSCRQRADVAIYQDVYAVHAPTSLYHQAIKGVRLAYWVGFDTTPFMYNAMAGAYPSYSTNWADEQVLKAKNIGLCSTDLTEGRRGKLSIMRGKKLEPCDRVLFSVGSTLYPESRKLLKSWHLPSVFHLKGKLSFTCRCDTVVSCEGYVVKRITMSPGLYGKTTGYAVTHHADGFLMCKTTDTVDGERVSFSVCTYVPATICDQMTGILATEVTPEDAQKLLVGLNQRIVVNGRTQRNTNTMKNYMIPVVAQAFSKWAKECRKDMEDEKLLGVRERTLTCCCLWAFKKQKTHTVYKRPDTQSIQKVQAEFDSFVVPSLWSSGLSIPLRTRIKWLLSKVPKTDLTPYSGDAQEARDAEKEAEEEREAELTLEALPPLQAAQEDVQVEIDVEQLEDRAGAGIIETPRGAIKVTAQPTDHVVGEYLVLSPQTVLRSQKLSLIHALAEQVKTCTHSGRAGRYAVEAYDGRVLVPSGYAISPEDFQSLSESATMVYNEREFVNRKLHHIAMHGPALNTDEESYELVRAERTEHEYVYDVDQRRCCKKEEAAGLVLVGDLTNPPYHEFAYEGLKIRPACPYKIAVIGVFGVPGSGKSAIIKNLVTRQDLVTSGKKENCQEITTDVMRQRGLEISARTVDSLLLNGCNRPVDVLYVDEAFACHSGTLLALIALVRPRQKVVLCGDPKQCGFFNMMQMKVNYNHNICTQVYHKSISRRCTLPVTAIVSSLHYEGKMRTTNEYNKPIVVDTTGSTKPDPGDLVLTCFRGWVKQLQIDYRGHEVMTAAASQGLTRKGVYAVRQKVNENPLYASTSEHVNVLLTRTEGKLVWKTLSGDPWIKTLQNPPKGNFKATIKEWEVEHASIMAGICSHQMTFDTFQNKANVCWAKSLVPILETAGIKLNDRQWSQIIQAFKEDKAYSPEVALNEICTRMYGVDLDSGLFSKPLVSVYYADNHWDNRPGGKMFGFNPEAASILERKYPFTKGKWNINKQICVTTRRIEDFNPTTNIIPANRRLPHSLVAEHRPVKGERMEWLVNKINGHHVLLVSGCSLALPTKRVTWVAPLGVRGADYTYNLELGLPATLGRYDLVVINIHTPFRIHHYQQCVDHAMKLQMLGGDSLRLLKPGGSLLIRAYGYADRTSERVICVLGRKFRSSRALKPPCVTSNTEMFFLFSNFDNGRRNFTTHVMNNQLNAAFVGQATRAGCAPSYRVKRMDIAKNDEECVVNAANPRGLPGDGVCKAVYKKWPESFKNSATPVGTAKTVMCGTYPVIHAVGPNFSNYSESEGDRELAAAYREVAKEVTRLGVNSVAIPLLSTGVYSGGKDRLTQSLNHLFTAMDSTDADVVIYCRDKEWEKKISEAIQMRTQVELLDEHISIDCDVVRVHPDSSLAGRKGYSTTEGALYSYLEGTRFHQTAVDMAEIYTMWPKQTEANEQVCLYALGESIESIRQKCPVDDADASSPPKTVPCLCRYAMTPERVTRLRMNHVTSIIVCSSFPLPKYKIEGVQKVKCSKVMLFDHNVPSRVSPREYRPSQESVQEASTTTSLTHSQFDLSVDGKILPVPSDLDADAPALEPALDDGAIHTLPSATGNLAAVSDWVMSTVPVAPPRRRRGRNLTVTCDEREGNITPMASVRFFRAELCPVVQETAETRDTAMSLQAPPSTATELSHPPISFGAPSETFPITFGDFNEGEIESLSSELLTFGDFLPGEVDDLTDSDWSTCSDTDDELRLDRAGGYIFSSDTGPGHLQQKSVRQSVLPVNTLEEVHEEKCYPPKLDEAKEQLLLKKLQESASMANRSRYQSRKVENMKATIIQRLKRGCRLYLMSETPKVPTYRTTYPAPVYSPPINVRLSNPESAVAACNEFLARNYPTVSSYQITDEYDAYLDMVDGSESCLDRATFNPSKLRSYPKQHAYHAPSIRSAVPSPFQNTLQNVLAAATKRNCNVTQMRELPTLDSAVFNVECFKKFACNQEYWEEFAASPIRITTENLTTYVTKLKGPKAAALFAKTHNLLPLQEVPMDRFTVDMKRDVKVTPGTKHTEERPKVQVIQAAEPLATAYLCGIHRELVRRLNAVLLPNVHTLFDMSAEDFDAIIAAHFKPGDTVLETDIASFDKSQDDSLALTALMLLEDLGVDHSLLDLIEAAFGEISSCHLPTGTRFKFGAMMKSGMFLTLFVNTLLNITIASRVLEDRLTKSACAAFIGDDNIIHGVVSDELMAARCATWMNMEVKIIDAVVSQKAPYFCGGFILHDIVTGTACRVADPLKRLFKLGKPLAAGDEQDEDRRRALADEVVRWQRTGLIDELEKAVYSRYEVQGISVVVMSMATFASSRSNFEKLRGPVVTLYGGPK
Active calls of the source: *; i = inactive; ? = inconclusive; & = joins results of further samples; [ ] = remark or other dose. % is scaled to controls: 0 for no effect and ±100 for the full control effect; potency is read from the fitted curve at half-maximal effect. The list is partial. The share of hits here may be higher or lower than overall.

SMILES	nsP2pro inh
COc1ccc(C(=O)N2CCC(N3C(=O)[C@H](OC)[C@@H]3c3ccncc3)CC2)c(OC)c1	4%
CCOC(=O)N1CCC(NC(=O)c2ccccc2C2CCNC2)CC1 (centres undefined)	2%
COc1ccc(OC)c(NS(=O)(=O)c2ccc(Br)s2)c1	?
CN1CCN(c2ccc([N+](=O)[O-])c3no[n+]([O-])c23)CC1	-2%
COc1cccc(N2CC(NC(=O)C3CC3)CC2=O)c1 (centres undefined)	-13%
COCCC1(NC(=O)C2CC2)CCN(C(=O)c2ccccn2)CC1	3%
CCCN1C(=O)CN(C2CCCCCC2)C(=O)C1c1ccc(OCC)c(OC)c1 (centres undefined)	-24%
C=C1CC2C3(C)C(O)CC(=O)C(C)(C)C3C(OC(C)=O)C(OC(C)=O)C2(C)C2C(=O)OC(C)(C(=O)OC)C(=O)C12C (centres undefined)	-11%[10 µM]
O=C(Nc1nc2ccccc2n1CCc1ccccc1)c1ccccc1	2%
Cc1nn(CC(=O)NC2CC2)c(=O)c2cc3ccccc3n12	-16%
C[C@@H]1CC[C@@]23CC[C@]4(C)[C@@](C=CC5[C@@]6(C)CC[C@H](O)C(C)(C)C6CC[C@]54C)(OC2=O)C3[C@H]1C (some centres undefined)	?
CCc1nnc(SCC(=O)Nc2ccc(F)cc2F)c2cc3sc(C)cc3n12	-7%
Cc1ccc(-c2cc3c(=O)n(CCNC(=O)c4cc(F)ccc4F)ccn3n2)c(C)c1	i
Cc1cc(-c2nnc3n2CCCCC3)c(C)n1-c1ccc(Cl)cc1	-6%
Cc1nn(C)c(C)c1CCC(=O)NCCc1ncc(C)n1C1CCCCC1	i
O=C(c1ccncc1)N1CCCC(Cc2noc(-c3cnccn3)n2)C1 (centres undefined)	-3%
COc1ccc2c(c1)OCC(CNC(=O)c1ccc(-c3nnn(C)n3)cc1)C2 (centres undefined)	i
COc1cc(O)c2c(c1)C1=C[C@H](O)[C@@H](O)C[C@]1(C)OC2=O	-8%
CC1OC(OC2C(C)OC(OC3C(OC(=O)/C=C/c4ccc(O)cc4)C(CO)OC(OC4(COC(=O)/C=C/c5ccc(O)cc5)OC(CO)C(O)C4O)C3OC3OCC(O)(CO)C3O)C(O)C2O)C(O)C(O)C1O (centres undefined)	21%[5.1 µM]
CCCCN(C)CC(O)Cn1cc(/C=C/C(=O)c2ccc(OC)c(OC)c2)c2ccccc21 (centres undefined)	52%[activator]
Cc1ccc(Cn2c(C(=O)Nc3ccc(Cl)cc3)cc3sccc32)cc1	-16%
COc1ccccc1CNC(=O)CCc1c(C)c2cc3c(C)c(C)oc3cc2oc1=O	-14%
COc1ccc(N2CCN(C(=O)CC3CCCCN(C)C3=O)CC2)cc1 (centres undefined)	-17%
COC1=CC(=O)C[C@@H](C)[C@@]12Oc1c(Cl)c(OC)cc(OC)c1C2=O	-16%
CC[C@@H](Nc1c(Nc2cccc(C(=O)N(C)C)c2O)c(=O)c1=O)c1cc(C(C)C)co1	-15%

2 compounds drawn at random from those above, as already listed:
SMILES	nsP2pro inh
CC[C@@H](Nc1c(Nc2cccc(C(=O)N(C)C)c2O)c(=O)c1=O)c1cc(C(C)C)co1	-15%
COc1cccc(N2CC(NC(=O)C3CC3)CC2=O)c1 (centres undefined)	-13%

The list goes on.
SMILES	nsP2pro inh
CCOc1ccc(CNc2ccc(-c3nc4ccccc4[nH]3)cc2)cc1	0%
O=S(=O)(Nc1nc(-c2ccccc2C(F)(F)F)nc2ccccc12)c1ccc(-c2cccnc2)cc1	i
CCOc1ccccc1C(=O)NCC(c1cccs1)S(=O)(=O)c1ccc(F)c(C)c1 (centres undefined)	-15%
CC1=C[C@@H](CN(CC2CC2)CC2CC2)[C@H](C(C)C)C[C@H]1Cc1nc2ccncc2[nH]1	i
C=C(C)C(=O)O[C@H]1C[C@@](C)(OC(C)=O)[C@@]2(O)CC[C@@](C)(O)[C@H](OC(C)=O)[C@@]23OC(=O)C(COC)=C13	-16%[10 µM]
Cc1ccc(C)c(S(=O)(=O)c2nnn3c2nc(N2CCCC2)c2sccc23)c1	-15%
COc1cc(-c2ncn(/C=C\C(=O)OC(C)C)n2)cc(C(F)(F)F)c1	-13%
Cc1cccc(OCc2c(C(=O)N3CCCC3c3nncn3CCN(C)C)noc2C)c1 (centres undefined)	3%
COCCn1cnc2ccc(-c3cccc(O)c3)nc2c1=O	-2%[39.2 µM]
CSc1ccccc1C(=O)N1CCN(C(C)=O)CC(O)C1 (centres undefined)	4%
O=C(O)CCCCC(=O)O	11%
c1cncc(-c2cc(-c3cccc(N4CCOCC4)c3)cn3cncc23)c1	i
COc1cccc(CNC(=O)C2CCN(S(=O)(=O)N3CCC(C)CC3)CC2)c1	-27%
CCOc1ccc(C(=O)N2CCCCC2CCN2CCOCC2)cc1 (centres undefined)	?
Cn1cc(S(=O)(=O)N2CCCCCC2)cc1C(=O)NCc1ccc(F)cc1	-15%
O=C(/C=C/c1ccc(O)c(O)c1)O[C@H]1[C@H](OC2CCCCC2O)O[C@H](CO)[C@@H](O)[C@@H]1O (some centres undefined)	3%[10 µM]
COc1cccc(CNC(=O)CCc2c(C)c3ccc(O)c(C)c3oc2=O)c1	-10%
C=CS(=O)(=O)N1CCCN(c2cc(NCCC(=O)O)nc(-c3ccccn3)n2)CC1	166%[activator]
CC(C)CN1CCN(C(=O)C2CCc3ncc(-c4ccc(F)cc4)n3C2)CC1 (centres undefined)	i
Cc1cc(C)cc(C(=O)Nc2cc(C(F)(F)F)ccc2N2CCN(c3ccccc3)CC2)c1	-17%
Cc1cc(OCCN(C)C)c(C)c2c1CC[C@@H]([C@H](C)C(=O)NCc1cccs1)C2	37%[activator][39.2 µM]
COc1ccc(C(=O)N2CCOC3(CCN(C(C)=O)CC3)C2)cc1	-22%
C=C[C@H]1[C@H](O[C@@H]2O[C@H](CO)[C@@H](O)[C@H](O)[C@H]2O)OC=C(C(=O)OC)[C@H]1CC=O	-7%
CCCCOc1ccc(Cn2c(=O)oc3ccc(C)cc32)cc1	-28%
COc1ccc(C(=O)N2CCN(C(=O)N3CC4CC(C3)[C@H]3CCCC(=O)N3C4)CC2)c(OC)n1 (some centres undefined)	4%
Other records follow:
SMILES	nsP2pro inh
O=S1(=O)N=C(Sc2ccc3c(c2)OCCO3)c2ccccc21	?
O=C(Cn1cc2c(n1)CCCC2)Nc1cc(C(F)(F)F)ccc1Cl	2%
Cc1ccc(CNC(=O)CSCc2nc(-c3ccc(Cl)cc3)oc2C)cc1	-25%
Cc1ccnc(NC(=S)N2CCN(c3ccc(Cl)cc3Cl)CC2)c1	i
Nc1c(CC(=O)O)cccc1C(=O)c1ccccc1	2%
Cc1ccc(Cl)cc1N1CCN(c2ncnc3c2nc2n3CCCC2)CC1	-8%
COc1ccc(/C=C(\C#N)c2nc(-c3cc4c(ccc5ccccc54)oc3=O)cs2)cc1O	2%
CCC(=O)O[C@@H]1C=C2CCC3C(CCC4(C)C3CC[C@@H]4OC(=O)CC)C2CC1 (some centres undefined)	-1%
CCCCNC(=O)CN1CCN(c2ccc(NC(=O)c3ccc(OC)cc3)cc2C(=O)O)CC1	4.5µM*
CCn1nc(CC(C)C)cc1C(=O)N(C)Cc1cccc(-n2cccn2)c1	1%
COc1ccc2c(c1)c(=O)c(C(=O)c1ccccc1)cn2CC(=O)Nc1ccc2c(c1)OCO2	-9%
CCOc1ccccc1NC(=O)CCS(=O)(=O)c1ccc(OC)cc1	-12%
COC(=O)c1cc(S(=O)(=O)NCC2CCN(Cc3cccc(F)c3)CC2)c[nH]1	-11%
O=C1c2ccccc2C(=O)N1c1cccnc1	i
CCS(=O)(=O)c1c(S(=O)(=O)CC)c2cc(C(C)(C)C)ccn2c1C(=O)c1ccc(F)cc1	-16%
O=C(NCc1ccccc1Cl)C1CCCN(c2nc3ccccc3n3cccc23)C1 (centres undefined)	-10%
CCOc1ccc(CCNC(=O)c2cc3c(s2)-c2ccccc2OC3)cc1OCC	-8%
Cc1ccc(S(=O)(=O)Nc2cnccc2C(=O)Nc2nc(C3CCC3)cs2)cc1	i
COC(=O)C1=CO[C@@H](O[C@@H]2O[C@H](CO[C@@H]3O[C@H](CO)[C@@H](O)[C@H](O)[C@H]3O)[C@@H](O)[C@H](O)[C@H]2O)[C@@H]2C(CO)=CC[C@H]12	?
CC1CCN(c2ccc(NC(=O)c3cccc(Cl)c3)cc2C(=O)O)CC1	4.5µM*
CC(C)(C)NC(=O)c1oc2ccccc2c1NC(=O)c1ccccc1F	-3%
COCC1CN(Cc2cnn(C(C)C)c2)CC12CCNCC2 (centres undefined)	?
Cc1c(C(=O)Nc2ccc(Br)cc2F)sc2ncnc(N(C)C3CCCCC3)c12	-15%
O=c1c2cn[nH]c2nc(SCc2cccc(Br)c2)n1-c1ccc(Cl)cc1	29%
COc1ccc(Nc2cc(C(=O)NC3CCCC3)c3ccccc3n2)c(OC)c1	-21%
Later entries
SMILES	nsP2pro inh
Cc1cnc(C(=O)N(C)C2CCc3nn(CC4CC4)c(=O)n3CC2)cn1 (centres undefined)	0%
CCN(Cc1ccccc1)C(=O)C1CCC(CNS(=O)(=O)c2ccc3c(c2)CCCC(=O)N3)CC1 (centres undefined)	-9%
Cc1ncc2c(n1)C[C@@H]1CC[C@H]2N1C(=O)C1CCC1	-5%
CCCn1c(-c2ccc(F)cc2)nc2c(NC3CC4CCC(C3)N4C)nc(C)nc21 (centres undefined)	i
COc1ccc(C(=O)NC[C@H]2O[C@H](Cc3cc(CN4CCOCC4)on3)CC[C@@H]2O)cc1	?
CCCCOC(=O)c1ccc(NC(=O)c2cnc3ccc(C)cn3c2=O)cc1	-18%
COc1ccc(CC2(CO)CCN(c3nccc(N)n3)CC2)cc1	i
CN(C)c1nc(-c2ccccc2)nc2c1CCN(C(=O)C1CCOC1)C2 (centres undefined)	-18%
O=C(Nc1ncc(Cc2ccc(C(F)(F)F)cc2)s1)c1ccco1	-15%
Cc1ccc(S(=O)(=O)Nc2cnccc2C(=O)Nc2nc(-c3ccccc3Cl)cs2)cc1	i
N#Cc1cccc(Nc2ncc(-c3cccc4ccccc34)o2)c1	-14%
COc1cc(-c2noc(-c3cc(C)[nH]n3)n2)cc(OC)c1OC	-5%
COCc1ccccc1-c1cn(C)c(=O)n2cc(COc3ccc(Cl)cc3)nc12	0%[39.2 µM]
COC(=O)N(C)c1c(N)nc(-c2nn(Cc3ccccc3F)c3ncccc23)nc1N	31%&2%[activator]
CC(=O)c1c(C)n(-c2cccc(C)c2)c2ccc(OC(=O)COc3ccccc3)cc12	-22%
Cc1cc(C(F)(F)F)c2c(N)c(C(=O)Nc3c(Cl)cccc3Cl)sc2n1	-1%
CCN(Cc1ccccc1)C(=O)c1cc2c(s1)-c1c(C)cccc1OC2	-19%
Cc1ccc(S(=O)(=O)c2nnn3c2nc(NCCc2ccccc2)c2sccc23)cc1	-20%
CN(C)C[C@@H]1CN(Cc2cccnc2)C[C@H]1NC(=O)CCn1cccn1	0%
CCN1C(C)(C)CC(Oc2ccc(C(=O)Nc3ccc(NC(=O)Nc4cc(C(C)(C)C)on4)cc3)nc2)CC1(C)C	13%
Cc1ccc(C(C)C)c(OCC(=O)Nc2cccc(-c3nc4ncccc4o3)c2)c1	-9%
C[C@H]1O[C@@H](n2cnc3c(N)ncnc32)C[C@@H]1O	?
COc1ccc(NC(=O)CC(C)S(=O)(=O)c2ccc3c(c2)NC(=O)CO3)cc1OC (centres undefined)	-8%
Cc1ccc(-n2c(=O)[nH]c3sc4c(c3c2=O)CCNC4)cc1C	-13%
COc1ccc(NC(=O)N2CC(N(CC(C)C)C3CCOCC3)C2)cc1F	i

A draw from above in order of molar mass, smallest number first.
SMILES	nsP2pro inh
N#Cc1cccc(Nc2ncc(-c3cccc4ccccc34)o2)c1	-14%
COc1cc(-c2noc(-c3cc(C)[nH]n3)n2)cc(OC)c1OC	-5%
COc1ccc(CC2(CO)CCN(c3nccc(N)n3)CC2)cc1	i
CN(C)C[C@@H]1CN(Cc2cccnc2)C[C@H]1NC(=O)CCn1cccn1	0%
CCCn1c(-c2ccc(F)cc2)nc2c(NC3CC4CCC(C3)N4C)nc(C)nc21 (centres undefined)	i
COCc1ccccc1-c1cn(C)c(=O)n2cc(COc3ccc(Cl)cc3)nc12	0%[39.2 µM]
COC(=O)N(C)c1c(N)nc(-c2nn(Cc3ccccc3F)c3ncccc23)nc1N	31%&2%[activator]

By substructure, the compounds so far containing a tert-butyl group (3)
SMILES	nsP2pro inh
CCS(=O)(=O)c1c(S(=O)(=O)CC)c2cc(C(C)(C)C)ccn2c1C(=O)c1ccc(F)cc1	-16%
CC(C)(C)NC(=O)c1oc2ccccc2c1NC(=O)c1ccccc1F	-3%
CCN1C(C)(C)CC(Oc2ccc(C(=O)Nc3ccc(NC(=O)Nc4cc(C(C)(C)C)on4)cc3)nc2)CC1(C)C	13%

Continuation.
SMILES	nsP2pro inh
CCOC(=O)c1ccc(N2C(=O)c3n[nH]c(-c4ccco4)c3C2c2ccccc2OC)cc1 (centres undefined)	?
O=C(c1cn(CCOc2ccccc2F)c2ccccc12)C1CCCCC1	7%
CCNC(=O)N1CCC(NC(=O)c2cccc(CCC(C)(C)O)c2)CC1	-6%
CC(NC(=O)CN1C(=O)COc2ccc(S(=O)(=O)N3CCCCCC3)cc21)c1ccccc1 (centres undefined)	-9%
COCC(=O)N1CCC(c2nn(-c3ccccn3)c(=O)[nH]2)CC1	-40%[39.2 µM]
O=c1cc(CN2CCCN(c3ccc(C(F)(F)F)cn3)CC2)nc2ccccn12	?
COCCCn1c(SCC(=O)NCc2ccccc2)nc2c(sc3ccccc32)c1=O	-13%
C[C@]12CCC[C@](C)(C(=O)O)C1[C@@H](O)[C@@H](O)C13CC(CCC12)C(CO)(O[C@@H]1O[C@H](CO)[C@@H](O)[C@H](O)[C@H]1O)C3 (some centres undefined)	11%[10 µM]
CCN1c2cc(C(=O)N3CCN(c4cccc(C)c4)CC3)ccc2C(=O)N2CCCCC21 (centres undefined)	-16%
CCN(CC)S(=O)(=O)c1ccc2nc(NC(=O)c3cccnc3)sc2c1	-7%
Cc1nc2n(c(=O)c1CCN1CCC(c3noc4cc(F)ccc34)CC1)CCC[C@H]2O	-7%
Cc1c(C(c2ccc(Cl)cc2Cl)c2c(O)c3ccccc3oc2=O)c(=O)n(-c2ccccc2)n1C (centres undefined)	-9%
